CDC25B-CDK2 inh – human CDC25B-CDK2/CyclinA binding inhibition; HTRF CDC25B-CDK2/CyclinA binding, anti-His/anti-Flag; stronger effect = higher value; AID 1259370; z-score (no concentration beside the values); P30305+P24941; 94,000 compounds, 0.72% hits;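 note: score is relative to mean and SD of negative controls; strong numbers were not always called active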
HIV TAR-Tat – HIV-1 TAR-Tat binding disruption; HIV-1 TAR RNA, Tat peptide displacement FRET; stronger effect = higher value; z-score (test concentration not listed); 100,000 compounds, 0.6% hits;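 note: score is relative to mean and SD of negative controls; some compounds called inactive have numbers as strong as hits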
Starred values were filed as active, the others as inactive; / = not tested or not shown.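 Rule for the calls: active = z-score from 3 up in half or more of its runs; inactive = the rest.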

compound	CDC25B-CDK2 inh	HIV TAR-Tat
O=C(Nc1cnc2ccc(Cl)cn2c1=O)c1ccccc1	4.8	-0.9
CC(C)(C)c1ccc(C(=O)N2N=C(c3ccccc3)CC2(O)C(F)(F)F)cc1 (centres undefined)	-1.2	/
Cc1cccc(-c2nc(CSc3nnc(C)n4c3cc3oc(C)cc34)c(C)o2)c1	/	2.6
COc1ccc(-c2nc(NCCc3c[nH]c4cc(OC)ccc34)sc2C)cc1	6.9	-1.6
O=C(Nc1nc2ccccc2s1)c1cc(NS(=O)(=O)c2ccc(F)cc2)ccn1	/	-4.4
CCN(c1ccccc1)c1nc2ccc(Cl)cc2n2cnnc12	-1.2	2.1
CCOC(=O)c1cnc(C(F)(F)F)nc1N/N=C/c1ccc(Cl)cc1	-1.2	/
C=CCc1ccc(OCCn2c(C(O)CC)nc3ccccc32)c(OC)c1 (centres undefined)	-1	0.71
COc1ccc2cc3cc(C(=O)NCC4CCCO4)oc3nc2c1 (centres undefined)	-2.5	/
O=C1c2oc3ccc(F)cc3c(=O)c2C(c2ccc(F)cc2)N1CCCN1CCOCC1 (centres undefined)	0.98	-2.6
COc1cc2c(cc1CC=C(C)C)C(=O)C[C@@H](c1ccc(O)cc1)O2	/	-0.66
O=c1c(NC2CCN(Cc3ccccc3)CC2)c(-c2ccc3c(c2)CCCC3)c1=O	/	-0.24
COc1cccc(-c2coc3cc4oc(=O)c5c(c4cc23)CCC5)c1	-1.8	/
COCCNc1cc(N2CCN(C)CC2)c2noc3c2c1C(=O)c1ccccc1-3	-2.5	1.6
Cc1cc2nc(-c3cccnc3)cc(C(F)(F)F)n2n1	-1.6	/
Cc1nc(N2CCN(c3cccc(Cl)c3)CC2)nc2c1C(=O)CCC2	-2	0.24
O=C(CN1C(=O)c2ccccc2S1(=O)=O)Nc1ccccc1F	-0.79	/
O=C1OC(OC(=O)c2ccccc2F)C(Nc2cccc(C(=O)O)c2)=C1Cl (centres undefined)	9.1	/
CC(=O)c1sc2sc([N+](=O)[O-])c(C)c2c1C	-1.4	/
COC(=O)c1ccc(N2CCC(C)CC2)c(N)c1	-2.3	/
CCOC(=O)c1c(N)sc2c1CCN(Cc1ccccc1)C2	-1.4	/
CC(=O)Nc1c2n(c3ccc(F)cc13)CC(C)(C(=O)NCCC(C)C)N(Cc1cccs1)C2=O (centres undefined)	/	0.92
NC(=O)CCC1NC(=S)N(Cc2ccccc2)C1=O (centres undefined)	-0.48	/
CCC(=O)N1CCc2cc(CNS(=O)(=O)N(C)C)ccc21	/	0.81
OC(C#CCCN1CCCCC1)(c1ccccc1)c1ccccc1	-0.67	/
COC(=O)c1ccc(C2c3c(n[nH]c3C)C(=O)N2c2ccc(Br)cc2)cc1 (centres undefined)	/	1.5
Cc1ccc2nc(SCCc3ccccc3)[nH]c2c1	-2.4	0.54
CC(C)(C)C1CCc2nc3ccc(S(=O)(=O)N4CCC(C(=O)O)CC4)cc3c(C(=O)O)c2C1 (centres undefined)	-0.29	/
COc1ccc(C2/C(=C(\O)c3ccc(Cl)cc3)C(=O)C(=O)N2c2nccs2)cc1 (centres undefined)	-1.1	0.13
Cc1nn(C(C)C(=O)N2CCN(c3cccc(Cl)c3)CC2)c(=O)c2c1sc1ccccc12 (centres undefined)	-1.3	2.4
CCc1c(C)c2c(C)[nH]nc2oc1=O	1	/
COc1ccc(C23CC4CC(CC(C4)C2)C3)cc1	-0.95	/
Fc1cccc(CN2C3=NCCN3c3ccccc32)c1	-1.3	0.91
NC1=NC(=O)CC(C(=O)Nc2ccc(Oc3ccc(Cl)cc3)cc2)S1 (centres undefined)	-0.88	-0.96
Cc1cccc(-n2c(=O)c(C#N)cc3c(=O)n4ccccc4nc32)c1	-0.86	0.97
O=C(O)CSc1nc2c(cnn2-c2ccc(F)cc2)c(=O)[nH]1	-0.54	/
Cc1ccc(S(=O)(=O)N(CCS(=O)(=O)N2CCNCC2)Cc2ccc(F)cc2)c(C)c1	/	-0.68
O=C(NCCCN1CCCC1)c1nc(CS(=O)(=O)c2ccc(Cl)cc2)no1	/	0.42
O=C(NCc1ccc(F)cc1)c1cnc2sc(N3CCCC3)nn2c1=O	/	0.93
CCCN(CCC)S(=O)(=O)c1ccc(C(=O)Oc2c(C)cccc2OC)cc1	-1.5	/
CC1=C(C(=O)OCC(C)C)C23C(=O)c4ccccc4C2(O1)OC(N)=C3C#N (centres undefined)	-2.3	/
COc1ccc(OC)c(C(O)c2nccn2C)c1 (centres undefined)	-2.7	/
CC(=O)N1N=C(c2ccco2)OC1COc1ccc(Cl)cc1C (centres undefined)	/	0.64
COc1ccccc1CNc1ncnc2c1nnn2C	/	2.3
O=C(c1cc2c(s1)-c1ccc(Cl)cc1S(=O)(=O)C2)N1CCN(c2ncccn2)CC1	-0.39	1.5
Cc1ccc(Nc2c(-c3ccc(C(C)C)cc3)c(=O)c2=O)c(C)c1	/	1.5
Cn1nc(C(=O)Nc2ccccc2F)c2c1-c1ccccc1S(=O)(=O)C2	-1.2	1
Cc1ncc(-c2ccc(C)c(S(=O)(=O)NC(C)(C)C)c2)o1	/	-0.2
CCOc1c(NC(C)(C)CC)c(=O)c1=O	/	-0.03
CCOC(=O)C1=C(CSc2nc3ccccc3nc2C)OC(N)=C(C#N)C1c1ccccc1F (centres undefined)	-0.19	/

The results go on:
compound	CDC25B-CDK2 inh	HIV TAR-Tat
O=C(NCCCN1CCOCC1)c1cnc2sc(N3CCCCC3)nn2c1=O	/	-0.58
Fc1ccc(-c2noc3ncnc(NCCc4ccc(Cl)cc4)c23)cc1	/	-0.25
COc1ccc(CN2CCc3nc(N4CCC(C)CC4)ncc3C2)cc1OC	/	-0.05
O=C(CC1(O)C(=O)Nc2ccc(Br)cc21)c1ccc2c(c1)OCCO2 (centres undefined)	1	-0.07
COCCCNC(=O)Nc1c(C)n(C)n(-c2ccccc2)c1=O	-2.3	-0.26
CC1CCCC(NS(=O)(=O)c2ccc(CN3C(=O)c4cccnc4C3=O)cc2)C1C (centres undefined)	/	0.17
CC1CCCCN1CCCNC(=O)C1CCN(c2nnc(-n3cccc3)s2)CC1 (centres undefined)	-1.2	-0.31
Cc1oc(C(=O)O)cc1COc1ccc2c3c(c(=O)oc2c1)CCC3	1.7	/
CS(=O)(=O)NCCc1csc(-c2cccc(F)c2)n1	/	0.78
Cc1ccc(-c2nnc3c(=O)[nH]c4ccccc4n23)cc1	0.85	-0.24
CCSc1nc2sc3c(c2c(=O)n1CC)CC(C)(C)OC3	1.1	-0.03
COc1c(Cl)c(C)c2c(c1Cl)OC(=O)c1c(C)c(Cl)c(O)c(Cl)c1O2	/	30*
Cc1ccc(-c2noc(-c3nnn(-c4cccc(Cl)c4)c3N)n2)cc1	/	0.84
Cc1ccc(-n2cc(-c3ccccc3)c3c(NCCOCCO)ncnc32)cc1	-0.55	/
COc1ccc(C2Oc3c(OC)cccc3C3CC(c4ccccc4O)=NN32)cc1 (centres undefined)	-1.7	-1.4
O=C(NC1CCCC1)c1ccc(Cn2nc(N3CCN(c4ccc(F)cc4)CC3)ccc2=O)o1	/	0.1
CN(c1c2c(nn1C)CCCC2)S(=O)(=O)c1ccc(Cl)cc1	-2	/
CS(=O)(=O)Nc1nc2ccc(NC(=O)c3ccncc3)cc2s1	/	2.4
Cc1ccc2c(c1)-c1cc(C)nn1C(c1cccs1)N2 (centres undefined)	-0.22	2.4
COC(=O)c1cccc2c1-c1ccccc1C2=O	-1.7	/
Cn1c(=O)c(=O)n(C)c2cc(NC(=O)c3ccco3)c(Cl)cc21	-0.3	1.6
CC(NC(=O)NCc1ccccc1)c1c(-n2cccc2)sc2c1CCCC2 (centres undefined)	-4.5	-0.1
COc1ccc(C(=O)/C=C/Nc2ccc(C(F)(F)F)cc2)cc1	-0.38	/
CC(=O)N1c2ccc(S(=O)(=O)N3CCC(C(=O)N4CCCCC4)CC3)cc2CC1C (centres undefined)	/	0.83
Cc1ccc(C(=O)CC2(O)C(=O)N(C(C)C)c3ccccc32)o1 (centres undefined)	-1.1	0.15
CCn1nc(C)c(CNS(=O)(=O)c2ccc(C)cc2C)c1C	/	-0.5
Cn1ncc2c(=O)n(Cc3cc(=O)n4ccccc4n3)cnc21	-1.8	1.4
CCCCn1c(SCC(N)=O)nc2c1c(=O)n(C)c(=O)n2C	-2.5	0.2
Cc1nnc(-c2cccc(S(=O)(=O)NCc3ccccc3)c2)o1	-1.2	1.4
Cc1cc(Nc2ccc(C(C)C)cc2)nc(-n2cc([N+](=O)[O-])cn2)n1	/	0.46
NS(=O)(=O)c1cc2c(cc1Cl)NC=NS2(=O)=O	-1.3	1.9
CCC(=O)Nc1nc2nc(C)c(C)c(=O)n2[nH]1	-0.87	0.02
C=CCn1c(SCC(=O)c2ccc(Cl)cc2)nc2ccccc2c1=O	-0.57	/
Cc1n[nH]c(C)c1CCCCOc1ccccc1F	-0.72	-1
O=c1c(NCc2ccc(F)cc2)nccn1-c1ccc2c(c1)OCO2	/	0.05
COc1cc(C2NCCc3c2[nH]c2ccccc32)ccc1OC(C)C (centres undefined)	-0.28	0.27
CCOc1ccc(Oc2nc(C)nc3c2oc2ccccc23)cc1	/	2
O=C(NC1CCCC1)[C@H](CSCc1ccccc1)N1Cc2ccccc2C1=O	0.27	/
Cc1ccccc1N1C(=O)CC(Sc2nnc(-c3ccccc3)o2)C1=O (centres undefined)	-0.96	-0.45
Cn1c(=O)c(C(=O)O)nn(-c2ccc(Cl)cc2)c1=O	0.32	0.42

Quoted at random: 6 records from the list.
compound	CDC25B-CDK2 inh	HIV TAR-Tat
COc1ccc2cc3cc(C(=O)NCC4CCCO4)oc3nc2c1 (centres undefined)	-2.5	/
CC(C)(C)C1CCc2nc3ccc(S(=O)(=O)N4CCC(C(=O)O)CC4)cc3c(C(=O)O)c2C1 (centres undefined)	-0.29	/
NC1=NC(=O)CC(C(=O)Nc2ccc(Oc3ccc(Cl)cc3)cc2)S1 (centres undefined)	-0.88	-0.96
O=C(NCCCN1CCOCC1)c1cnc2sc(N3CCCCC3)nn2c1=O	/	-0.58
Cn1ncc2c(=O)n(Cc3cc(=O)n4ccccc4n3)cnc21	-1.8	1.4
Fc1ccc(-c2noc3ncnc(NCCc4ccc(Cl)cc4)c23)cc1	/	-0.25

Next section.
compound	CDC25B-CDK2 inh	HIV TAR-Tat
CCCS(=O)(=O)c1nc(S(=O)(=O)c2ccc(C)cc2)c(NCCCN(C)C)s1	-0.19	1
O=C(Oc1ccc(Cl)cc1)c1cc(-c2ccc3c(c2)OCCO3)on1	-1.5	0.62
c1ccc(CNc2nc(-c3ccccc3)no2)cc1	/	1.9
O=C1c2ccccc2C(Nc2ccc(Br)cc2F)N1c1cccnc1 (centres undefined)	0.18	0.81
O=C(CC1CCCC1)NCCS(=O)(=O)N1CCc2ccccc2C1	/	0.2
CC(=O)c1cccc(NC(=O)c2cc(I)ccc2Cl)c1	-0.05	/
CCC(=O)Oc1ccc2c(-c3ccccc3)cc(=O)oc2c1	-1.8	/
CCOC(=O)CNC(=O)NCCc1c(C)nn(CC)c1C	/	-1.9
COc1ccc(-c2csc3ncnc(NCCN4CCCC4)c23)cc1	/	0.07
O=C1c2cccnc2C(=O)N1Cc1ccc(S(=O)(=O)N2CC=C(c3ccccc3)CC2)cc1	/	0.12

Continued; the last 4 above are carried over.
compound	CDC25B-CDK2 inh	HIV TAR-Tat
CCC(=O)Oc1ccc2c(-c3ccccc3)cc(=O)oc2c1	-1.8	/
CCOC(=O)CNC(=O)NCCc1c(C)nn(CC)c1C	/	-1.9
COc1ccc(-c2csc3ncnc(NCCN4CCCC4)c23)cc1	/	0.07
O=C1c2cccnc2C(=O)N1Cc1ccc(S(=O)(=O)N2CC=C(c3ccccc3)CC2)cc1	/	0.12
O=C(O)/C=C\C(=O)NCCC1=CCCCC1	-0.89	/
CS(=O)(=O)Nc1cccc(C2=NN(C(=O)CCC(=O)O)C(c3ccc(F)cc3)C2)c1 (centres undefined)	-1.2	/
CC1=C(c2ccc(C)c(C)c2)S(=O)(=O)N=C1Nc1ccccc1Br	-3	1.6
Cc1[nH]nc(NC2CCCCC2)c1[N+](=O)[O-]	-0.66	-0.42
CS(=O)(=O)N1CCCc2ccc(NS(=O)(=O)c3ccc4c(c3)CCCC4)cc21	/	0.93
CCCc1cc(=O)n2[nH]c(-c3ccccc3)nc2n1	-1.4	3.5
Clc1ccc2nc(-c3ccncc3)c(NC3CCCC3)n2c1	3.4	-2.1
O=C(Nc1ccccc1)c1c(O)c2cccc3c2n(c1=O)CCC3	/	1.5
O=S(=O)(NCc1ccccc1)c1cc(Br)c(Br)s1	-1.4	/
O=C(CSc1ccc(Cl)cc1)Nc1ccc(Cl)cc1C(=O)NCc1cccs1	-2.2	/
CC1CSc2ccc(S(=O)(=O)N3CCN(c4ncccn4)CC3)cc2NC1=O (centres undefined)	/	1.3
CSc1cccc(NC(=O)c2c(N3CCCC3=O)c3cc(F)ccc3n2C)c1	/	0.09
O=S1(=O)N=C(Nc2nnc(SCc3ccccc3Cl)s2)c2ccccc21	3	0.89
CC1Cc2c([nH]c3ccccc23)C(C)N1 (centres undefined)	0.93	/
COc1cc(C2C(C#N)=C(N)Oc3cc4c(cc32)OCO4)cc(OC)c1OC (centres undefined)	-2.6	/
CCCCn1c(CN2CCN(CC)CC2)nc2c1c(=O)n(C)c(=O)n2C	-2.1	/
CCCCN(CC)C(=O)C1CCC(CNS(=O)(=O)c2cccc3nsnc23)CC1 (centres undefined)	-1.1	-0.49
